Screening results: PubChem, Johns Hopkins Ion Channel Center
KCNQ2 enhance: potentiators of rat KCNQ2 potassium channel; CHO-K1 KCNQ2, FluxOR thallium flux fluorescence; stronger effect = higher value; B-score at 10 µM; 310,000 compounds, 0.54% hits; O88943;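 active means fluorescence ratio B-score at least 3 SD of library B-scores, with initial fluorescence B-score within 3 SD, cut at about 5.3 in these data; same plate scores as AID 2156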;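 further: B-score of peak minus minimum over baseline fluorescence ratio after K+ and Tl+ stimulus; positive B-score means potentiation of KCNQ2 with more thallium influx and brighter signal; only the inactives scoring about 0 or higher are listed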
Target sequence (O88943 whole entry, looked up): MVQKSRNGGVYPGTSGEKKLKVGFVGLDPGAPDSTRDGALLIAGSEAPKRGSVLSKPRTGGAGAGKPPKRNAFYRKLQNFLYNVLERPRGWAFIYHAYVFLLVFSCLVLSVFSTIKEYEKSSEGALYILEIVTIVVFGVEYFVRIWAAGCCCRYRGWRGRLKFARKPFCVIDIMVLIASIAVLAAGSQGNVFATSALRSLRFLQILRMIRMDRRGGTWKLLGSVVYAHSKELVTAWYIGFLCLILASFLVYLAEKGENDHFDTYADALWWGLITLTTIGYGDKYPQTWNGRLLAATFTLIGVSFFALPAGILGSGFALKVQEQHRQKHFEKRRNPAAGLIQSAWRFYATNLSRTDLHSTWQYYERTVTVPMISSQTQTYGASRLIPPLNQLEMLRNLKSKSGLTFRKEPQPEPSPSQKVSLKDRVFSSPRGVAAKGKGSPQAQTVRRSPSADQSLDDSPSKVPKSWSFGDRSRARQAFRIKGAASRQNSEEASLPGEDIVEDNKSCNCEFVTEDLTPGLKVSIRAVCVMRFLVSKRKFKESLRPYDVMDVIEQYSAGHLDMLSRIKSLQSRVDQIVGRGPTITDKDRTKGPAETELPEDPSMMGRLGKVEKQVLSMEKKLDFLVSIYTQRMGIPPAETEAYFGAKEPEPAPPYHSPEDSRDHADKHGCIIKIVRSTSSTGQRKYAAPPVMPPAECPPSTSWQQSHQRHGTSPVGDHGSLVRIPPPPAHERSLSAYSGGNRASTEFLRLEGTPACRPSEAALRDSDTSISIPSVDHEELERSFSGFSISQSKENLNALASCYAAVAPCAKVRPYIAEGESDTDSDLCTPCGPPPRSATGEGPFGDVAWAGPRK
KCNQ2 enhance baseline: recorded beside KCNQ2 enhance, whose call it bears; B-score; compound at 10 µM; measured here: initial fluorescence intensity artifact check;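 brightness before thallium and not channel activity; 0 = typical well and far values either way flag optical interference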
* marks the source's active call; other numbers are inactive results. Some of the compounds tested (hit frequency here may not be typical).

nr	Structure	KCNQ2 enhance	KCNQ2 enhance baseline
1	CCOc1ccccc1NC(=O)CSc1nnc2ccc(-c3cccnc3)nn12	0.02	0.6
2	CCOC(=O)C1(CC2CC2)CCN(Cc2cn(C)c3ccccc23)CC1	1.07	0.66
3	CCOC(=O)N1CCN(C(=O)c2ccc(Cl)c(S(=O)(=O)N3CCCC3)c2)CC1	2.41	-0.31
4	CSc1nc2nc3c(c(=O)n2[nH]1)CN(Cc1ccccc1)CC3	0.44	1.96
5	CCS(=O)(=O)N1CCC(C(=O)Nc2cccc(F)c2)CC1	0.82	-1.35
6	Cc1ccc(NS(=O)(=O)c2cccs2)cc1S(=O)(=O)N1CCCCCC1	0.09	-0.86
7	COc1cc(S(=O)(=O)NCC2CCCO2)ccc1Br (configuration not stated)	1.45	0.15
8	CCN(CC)S(=O)(=O)c1ccc(N2CCOCC2)c(NC(=O)Cc2ccccc2F)c1	1.37	1.84
9	COc1ccc(C(c2c(NC(=O)c3ccccc3)sc(C)c2C)N2CCN(CCO)CC2)cc1 (configuration not stated)	0.01	0.72
10	OCCNCc1c(OCc2ccc(Cl)cc2)ccc2ccccc12	0.51	-0.62
11	Cc1cc(SCC#N)n2nc(C)c(-c3ccc(Cl)cc3)c2n1	0.68	0.62
12	O=C(/C=C/c1ccc(O)cc1)OCc1occc(=O)c1O[C@@H]1OC(CO)[C@@H](O)[C@H](O)[C@@H]1O (some centres not stated)	1.55	-0.17
13	Cc1ccc(NC(=O)NC2CCCCCCC2)c(C)c1	0.79	0.01
14	O=C1OCCC1Sc1nnc(-c2cccnc2)n1-c1ccccc1F (configuration not stated)	0.11	0.15
15	COc1ccc(CC2S/C(=C(\C#N)C(=O)NCc3ccco3)N(c3ccc(C)cc3)C2=O)cc1 (configuration not stated)	1.67	-0.16
16	CCn1ncc(NC(=S)Nc2ccc(OC)c(OC)c2)c1C(N)=O	0.82	0.84
17	CCOc1ccccc1N(CC(=O)Nc1ccccc1C(=O)O)S(C)(=O)=O	0.94	-0.47
18	Nc1ccccc1S(=O)(=O)NCCCCc1ccccc1	0.3	-2.63
19	Cc1ccc2c(Cl)c(C(=O)NCC3CCCO3)sc2c1 (configuration not stated)	0.01	0.49
20	C=CCOc1ccccc1CN1CCC(C(=O)Nc2cccc(-c3ccn[nH]3)c2)CC1	0.3	-1.11
21	CCOC(=O)C1CCN(C(=S)Nc2cc(C)ccc2C)CC1	0.31	0.17
22	O=C(CCCNS(=O)(=O)c1cccc2nsnc12)NCCN1CCN(c2ccccc2F)CC1	0.71	0.03
23	Cc1ccc(C2=CSC3=NCCN23)cc1	0.22	0.8
24	O=C(COC(=O)c1cccnc1)Nc1cccc(Cl)c1	0.6	-0.48
25	COC(=O)c1ccc(-c2nc3ccccc3[nH]2)cc1	0.63	1.06

Reprinted from the part before: 6 entries, followed by the next part.
nr	Structure	KCNQ2 enhance	KCNQ2 enhance baseline
20	C=CCOc1ccccc1CN1CCC(C(=O)Nc2cccc(-c3ccn[nH]3)c2)CC1	0.3	-1.11
21	CCOC(=O)C1CCN(C(=S)Nc2cc(C)ccc2C)CC1	0.31	0.17
22	O=C(CCCNS(=O)(=O)c1cccc2nsnc12)NCCN1CCN(c2ccccc2F)CC1	0.71	0.03
23	Cc1ccc(C2=CSC3=NCCN23)cc1	0.22	0.8
24	O=C(COC(=O)c1cccnc1)Nc1cccc(Cl)c1	0.6	-0.48
25	COC(=O)c1ccc(-c2nc3ccccc3[nH]2)cc1	0.63	1.06
26	CS(=O)(=O)c1ccc2nc(NC(=O)C3CC3)sc2c1	1.97	0.59
27	O=C(O)C1Cc2ccccc2CN1C(=O)COc1ccc(Br)cc1 (configuration not stated)	0.33	0.06
28	Clc1ccc(Nc2ncnc3c2cnn3-c2ccccc2)cc1	0.19	2.04
29	Cn1c(=O)n(Cc2ccccc2)c(=O)c2c1nc1n2CCCN1C1CCCCC1	1.37	-1.45
30	CCN(CC)S(=O)(=O)c1cc([N+](=O)[O-])ccc1N1CCC(C(N)=O)CC1	0.82	-0.87
31	Cc1cc([N+](=O)[O-])nn1CC(=O)NCc1ccc(Cl)cc1	1.56	-0.4
32	CC1=C(C(=O)OCc2ccccc2)C(c2ccsc2)NC(=O)N1C (configuration not stated)	1.07	-1.26
33	O=C(NCCCN1CCCCC1)c1ccc(CS(=O)c2ccc(F)cc2)o1 (configuration not stated)	1.45	1.38
34	Cc1cc(C)cc(OCCNC(=O)c2cc(S(=O)(=O)N3CCOCC3)ccc2F)c1	0.05	-1.46
35	COc1cc2c(cc1OC)-c1cc(Nc3ccc(C(=O)O)cc3)nc(=O)n1CC2	3.17	-0.94
36	COc1ccc(S(=O)(=O)N2CCN(c3c(C)cccc3C)CC2)cc1OC	0.07	0.55
37	COc1ccc2c(C)cc(SCC(=O)N3CCOCC3)nc2c1	0.04	1.65
38	Cc1cc(NC(=O)c2ccccc2F)cc(C)c1OCC(=O)N1CCOCC1	0.44	0.59
39	CC1CCN(c2nc(-c3ccccc3)cc(C(F)(F)F)n2)CC1	0.56	0.14
40	Cn1cccc1Cc1nnc(SCC(=O)NCc2ccco2)n1-c1ccc(F)cc1	0.07	-0.41
41	Cc1cc(C(=O)O)ccc1NCc1ccncc1	0.34	1.21
42	COCCNC(=O)CCSCc1ccccc1F	1.98	-0.16
43	O=C(O)CSc1c2c(nc3cc(C(=O)Nc4cccc(C(F)(F)F)c4)ccc13)CCCC2	2.42	1.83
44	S=c1[nH]nc(-c2ccccc2)n1/N=C/c1cccc(Cl)c1	1.68	-1.63
45	COc1ccccc1C(=O)CSc1ccccn1	0.35	-0.6
46	COc1ccc(OCCn2cnc3ccccc32)cc1	0.09	-2.27
47	Cc1c(C=C2C(=O)c3ccccc3C2=O)cc(C#N)n1C	1.13	0
48	CCOC(=O)C1(CCCc2ccccc2)CCN(C(=O)CN2CCOC2=O)CC1	0.4	1.2
49	CCCCN1CCc2c([nH]c3c(C)cccc23)C1=O	1.51	0.37
50	Cc1c(-c2n[nH]c(=S)n2-c2ccc(C(F)(F)F)cc2)nnn1-c1ccccc1	1.31	-0.29
51	CN(C)C(=O)CSc1nnc(Cc2ccccc2)n1CC1CCCO1 (configuration not stated)	0.74	0.61
52	CCc1nnc(NC(=O)CSc2nnc3c(n2)[nH]c2ccccc23)s1	0.02	1.53
53	O=C(Nc1ccc(OC(=O)c2ccco2)cc1)c1ccco1	0.43	2.24
54	Cc1ccc(CSCC(=O)Nc2cc(S(=O)(=O)N3CCOCC3)ccc2OC(C)C)cc1	0.1	-0.34
55	Cc1cc(Br)ccc1SCC(=O)OCC(=O)Nc1ncc(C(F)(F)F)cc1Cl	0.07	1.53
56	COc1ccc(-c2cc(=Nc3c(C)n(C)n(-c4ccccc4)c3=O)c3ccccc3o2)cc1	1.61	-1.21
57	COC(=O)COc1ccccc1C(N)=O	0.78	-1.37
58	C=CCn1c(NCCO)nc2c1c(=O)n(C)c(=O)n2C	0.35	0.73
59	COc1c2c(nc3ccccc13)OC(C(C)(O)COC(C)=O)C2 (configuration not stated)	1.09	0.3
60	CCN1CCCC1Cn1cnc2c([nH]c3cccc(Cl)c32)c1=O (configuration not stated)	0.08	-0.77
61	COc1ccc(NC(=O)c2cccc(S(=O)(=O)N3CCN(C)CC3)c2)c(OC)c1	0.08	0.59
62	CCCCn1c(N)c(N(CC(C)C)C(=O)c2cccc(OCc3ccccc3)c2)c(=O)[nH]c1=O	0.73	0.54
63	CCC(CC)NCc1ccc(OC)cc1OC	1.46	0
64	CCc1ccccc1NC(=O)COc1ccc(N2CC(C(N)=O)CC2=O)cc1 (configuration not stated)	0.17	0
65	Cc1ccc(NC(=O)CCN2C(=O)CSC2=O)c(C)c1	4.79	0.82
66	Cc1ccc2c(c1)c1c(n2CC(O)Cn2c(C)nc3ccccc32)C(=O)CCC1 (configuration not stated)	0.47	0.37
67	O=C(Cn1c(-c2ccccc2)c[n+]2ccsc12)c1ccc(Br)cc1	1.42	-0.29
68	CCOC(=O)c1ccc(CNC(=O)Cn2nnc(-c3ccc(C)cc3)n2)o1	0.06	1.06
69	O=C(CNC(=O)c1ccccc1)OCc1ccc([N+](=O)[O-])cc1	0.23	-0.07
70	COc1ccc(NC(=S)N2CCC(C(O)(c3ccccc3)c3ccccc3)CC2)cc1	6.65*	-0.5*
71	Cc1cccc(C)c1NC(=O)CNC(=O)Cc1c[nH]c2ccccc12	1.2	-0.82
72	CCc1c(C(=O)NCc2cnn(C)c2)csc1C	0.05	0.8
73	COc1ccccc1CNC(=O)C1CCN(S(=O)(=O)N2CCCCC2)CC1	1.06	0.8
74	COc1cccc(/C(O)=C2\C(=O)C(=O)N(c3ccccn3)C2c2cccc(OC)c2OC)c1 (configuration not stated)	1.4	0.62
75	CCOCCn1c(N2CCN(c3ccc(OC)cc3)CC2)nc2c1c(=O)[nH]c(=O)n2C	0.81	0.68

Next section
nr	Structure	KCNQ2 enhance	KCNQ2 enhance baseline
76	Cc1cc(=O)[nH]c2c1c(C)nn2C1CCCCC1	0.35	0.48
77	CS(=O)(=O)Nc1ccc(C(=O)NC2CCCCC2)cc1	0.51	0.28
78	CCOc1ccc(C(C(=O)NCC2CCCO2)N(C(=O)c2snc(C(N)=O)c2N)c2cccc(F)c2)cc1 (configuration not stated)	1.83	-0.16
79	O=C(Cn1cnc2c(oc3ccccc32)c1=O)NCCc1ccccc1	0.83	0.01
80	CCn1c(C)nnc1SCC(=O)Nc1nccs1	0.55	-0.5
81	Cc1cccnc1NC(=O)c1ccc(S(=O)(=O)N2CC(C)OC(C)C2)cc1 (configuration not stated)	0.09	-0.02
82	Cn1c(=O)oc2cc(S(=O)(=O)NCCN3CCc4ccccc4C3)ccc21	0.76	0.13
83	CCCS(=O)(=O)c1nc(S(=O)(=O)c2ccc(C)cc2)c(N2CCC(O)CC2)s1	0.72	-0.59
84	O=C(NCC(c1cccnc1)N1CCN(c2ccc(F)cc2)CC1)c1ccc2c(c1)OCO2 (configuration not stated)	0.02	2.06
85	COC(=O)c1nc2n(n1)C(c1cc(OC)ccc1OC)C(C(=O)OC1CCCCC1)=C(C)N2 (configuration not stated)	0.21	-1.56
86	Cc1ccccc1NC(=O)c1ccc(F)c(S(=O)(=O)N2CCCCC2)c1	0.13	2.4
87	COc1ccccc1Nc1cc2cc(Br)ccc2c(=O)[nH]1	0.16	0.66
88	CN(C)CCNC(=O)c1cccc(NS(=O)(=O)c2ccc(Cl)c(Cl)c2)c1	0.46	-0.78
89	O=c1c2c(ncn1CCO)nc1n2CCC1	0.62	-1.68
90	O=C(COC(=O)c1cc(NS(=O)(=O)c2cccs2)ccc1O)Nc1ccccc1	1.16	-0.12
91	CCCCNC(=O)CSc1nnc(Cc2ccccc2)n1CC1CCCO1 (configuration not stated)	0.25	-0.85
92	Cc1cccc(OCc2nnc(SCC(=O)N3CCCCC3)o2)c1	0.05	0.41
93	CS(=O)c1ccccc1COC(=O)Nc1ccccc1 (configuration not stated)	1.5	0.05
94	CCC1(C)Cc2ccccc2C(=O)N1 (configuration not stated)	0.07	-0.4
95	CN(c1ccc(OCc2ccc([N+](=O)[O-])cc2)cc1)S(=O)(=O)c1ccccc1	0.84	0.2
96	C/C(=N\Nc1ccc([N+](=O)[O-])cc1[N+](=O)[O-])c1ccc(-n2nncc2C(C)(C)C)cc1	0.02	0.02
97	O=C(Nc1nccs1)c1ccc(S(=O)(=O)NCc2cccs2)cc1	0.44	0.33
98	CCOc1ccc(/C=N/n2c(C)nc3ccccc3c2=O)cc1	1.03	1.32
99	Cc1cccc(Nc2nc3c(c(=O)n(C)c(=O)n3C)n2CC(O)CO)c1 (configuration not stated)	3.22	0.03
100	N#Cc1nc(-c2cccc(Cl)c2)oc1N1CCC(C(N)=O)CC1	0.22	0
101	COc1ccc2c(c1)CC/C(=C/c1ccncc1)C2=O	1.21	0.68
102	COC(=O)C1CCN(c2ccc([N+](=O)[O-])cc2)CC1	0.35	0.45
103	Cc1ccc(CNC(=O)C2CCN(C(=O)Nc3ccccc3)CC2)cc1	0.08	0
104	Cc1cc2ccccn2c1C(=O)c1nc(NCc2ccco2)ncc1Cl	0.65	-0.16
105	O=C(CC(=O)NCCc1ccccc1)NCCc1ccccc1	1.08	0.22
106	CCCCn1nnnc1SCC(=O)Nc1ccc(F)cc1	1.16	-0.76
107	Cc1oc2c(Cl)c(Cl)c(O)c(CN(C)C)c2c1C(=O)c1ccc(Cl)cc1	1.72	-0.4
108	Oc1ccc(-c2nc3c4c(ncn3n2)-c2ccccc2CC42CCCC2)cc1	0.01	0.69
109	COC(=O)C1CCC(C)(C(=O)Nc2ccccc2)C1(C)C (configuration not stated)	0.65	-0.01
110	CCCCOC(=O)C1=C(C)NC2(O)c3ccccc3C(=O)C12O (configuration not stated)	0.5	0.44
111	CC(C)CC(=O)NC(=S)N1CCCCCC1	0.05	-2.39
112	CCCc1cc(=O)n2[nH]c(NCc3c(F)cccc3Cl)nc2n1	2.11	-0.02
113	COc1ccc(NC(=O)Nc2cccc(C)n2)c(OC)c1	1.18	0.72
114	c1ccc2c(Oc3ccc4c(c3)OCO4)nncc2c1	0.82	-0.56
115	Cn1nc(CC(=O)NCc2cccc3ccccc23)c2ccccc2c1=O	0.09	0.04
116	O=C(CC1(O)C(=O)N(Cc2ccccc2)c2ccccc21)c1ccc2c(c1)OCO2 (configuration not stated)	0.57	1.69
117	CC(C)c1ccc(CN2C(=O)c3ccccc3S2(=O)=O)cc1	0.82	-0.87
118	Cc1nn(Cc2ccc(F)cc2)c(C)c1NC(=O)C1c2ccccc2Oc2ccccc21	0.02	-2.49
119	O=C(Nc1c(C(=O)N2CCOCC2)cnn1-c1ccccc1)c1ccccc1F	0.33	1.15
120	COc1ccc2[nH]c(O)c(N=NC(=N)N)c2c1	1.47	0.54
